Screens: PubChem, ICCB-Longwood Screening Facility, Harvard Medical School
HCMV NEC inh – disrupts HCMV UL50-UL53 complex binding | actives 0.15% (n = 190,000) | HTRF UL50-UL53 interaction, normalized percent inhibition | inhibition, % (concentration not given with the values);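 active = both replicates at 50% or more, plus weaker picks with an unusually low signal ratio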;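 note: stock transfer was 100 nL into about 20 µL; 0% = negative control wells and 100% = wells with untagged competitor protein; inactives centre near -12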
Sa growth 42C – S. aureus growth inhibition; S. aureus RN4220 growth, OD600, 20 h, 42 °C; active compounds read low; relative growth, % (concentration not given with the values); actives 0.53% (n = 170,000); AID 720641;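 active = growth at 42 °C up to 50% and 20 or more points under that at 30 °C, or under 10% at both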;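 note: 300 nL library stock went into each well; scaled to the means of positive and negative controls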
GIV-Gai inh – inhibitors of GIV GBA-motif binding to rat Galpha-i3 | P08753 | Galpha-i3/FITC-GIV peptide fluorescence polarization, 90 min; active compounds read low; scaled: aluminum fluoride 0%, vehicle 100% | percent of control (FP), % (test concentration not listed) | actives 0.42% (n = 210,000);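 active = replicate mean at 85% of control or lower, very high polarization wells dropped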;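 note: lower values mean more displacement of the GIV peptide from Galpha-i3; wells of about 15 µL received 100 nL stock; the first replicate is given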
Target sequence (P08753 whole entry, looked up): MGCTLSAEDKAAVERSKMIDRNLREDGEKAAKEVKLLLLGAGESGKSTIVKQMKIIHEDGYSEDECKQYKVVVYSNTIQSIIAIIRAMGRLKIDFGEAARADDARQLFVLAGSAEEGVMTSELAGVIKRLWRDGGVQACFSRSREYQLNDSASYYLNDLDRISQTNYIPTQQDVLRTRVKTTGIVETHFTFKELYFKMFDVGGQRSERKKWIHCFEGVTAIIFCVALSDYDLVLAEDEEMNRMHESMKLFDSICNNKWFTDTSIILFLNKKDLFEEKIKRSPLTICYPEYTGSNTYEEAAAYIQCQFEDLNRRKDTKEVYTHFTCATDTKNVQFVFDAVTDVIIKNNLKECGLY
Sa growth 42C second temp – second read-out of Sa growth 42C, no call of its own (marks repeat the call); relative growth, %; measured here: growth at 30 °C;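 optical density after 20 h as mean of two plates; 100% = untreated growth and lower means inhibition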
* hit, by the source's call; & = joins results of further samples.

What do the screens show for `CCc1ccccc1NC(=O)c1ccc(F)c(S(=O)(=O)N2CCN(c3ccccc3OC)CC2)c1`?
Sa growth 42C: 132; GIV-Gai inh: 106; Sa growth 42C second temp: 94

How did COc1ccc(C)c2sc(N(Cc3ccccn3)C(=O)c3ccco3)nc12 do in these assays?
HCMV NEC inh: -14; Sa growth 42C: 111; GIV-Gai inh: 107; Sa growth 42C second temp: 98

What do the screens show for `CC(C)C(=O)Nc1nc2ccccc2s1`?
HCMV NEC inh: -12; Sa growth 42C: 101; Sa growth 42C second temp: 77

Results for Cc1ccc(CNC(=O)c2cc(Sc3ccc(F)cc3F)nc3ccccc23)cc1 ?
Sa growth 42C: 136; GIV-Gai inh: 100; Sa growth 42C second temp: 96

What do the screens show for `CCC(C)(CC(=O)O)CC(=O)Nc1cc(OC)c(Cl)cc1OC` (stereo not given)?
HCMV NEC inh: -24; Sa growth 42C: 104; Sa growth 42C second temp: 97

Results for Cc1nn(C(C)CN)c(C)c1C (stereo not given) ?
HCMV NEC inh: 0; Sa growth 42C: 87; GIV-Gai inh: 103; Sa growth 42C second temp: 102

Results for COCCCn1c(=O)c2ccccc2c2ccccc2c1=O ?
HCMV NEC inh: -26; Sa growth 42C: 82; GIV-Gai inh: 99; Sa growth 42C second temp: 80

What do the screens show for `Cc1ccccc1SCC(=O)NCCN1CCOCC1`?
HCMV NEC inh: -18; Sa growth 42C: 93; Sa growth 42C second temp: 90

What do the screens show for `CC1=C(C(=O)Nc2ccc(Cl)cc2)C2(CCN(Cc3ccccc3)CC2)OC1=O`?
HCMV NEC inh: -16; GIV-Gai inh: 104

Results for N#CCc1c(C#N)c(N)nc(N2CCCCC2)c1C#N ?
HCMV NEC inh: -12; Sa growth 42C: 80; Sa growth 42C second temp: 78

Results for Cc1cc(S(=O)(=O)n2cccc2)c(Cl)cc1Cl ?
Sa growth 42C: 94; GIV-Gai inh: 99; Sa growth 42C second temp: 95

How did CC1CC(=O)Nc2ccccc2N1C(=O)Cc1ccc(Cl)cc1 (stereo not given) do in these assays?
HCMV NEC inh: -6; GIV-Gai inh: 96

Among those listed so far, these have a Cl atom:
What do the screens show for `CCC(C)(CC(=O)O)CC(=O)Nc1cc(OC)c(Cl)cc1OC` (stereo not given)?
HCMV NEC inh: -24; Sa growth 42C: 104; Sa growth 42C second temp: 97

What do the screens show for `CC1=C(C(=O)Nc2ccc(Cl)cc2)C2(CCN(Cc3ccccc3)CC2)OC1=O`?
HCMV NEC inh: -16; GIV-Gai inh: 104

Results for Cc1cc(S(=O)(=O)n2cccc2)c(Cl)cc1Cl ?
Sa growth 42C: 94; GIV-Gai inh: 99; Sa growth 42C second temp: 95

How did CC1CC(=O)Nc2ccccc2N1C(=O)Cc1ccc(Cl)cc1 (stereo not given) do in these assays?
HCMV NEC inh: -6; GIV-Gai inh: 96

The listing continues:
What do the screens show for `COc1ccc(CCN2CCC(Nc3nc4ccccc4n3Cc3ccc(F)cc3)CC2)cc1`?
HCMV NEC inh: -35&-42&0&-15; Sa growth 42C: 96&103; GIV-Gai inh: 102; Sa growth 42C second temp: 65&71

Results for COc1cc2c(cc1OC)C(c1ccc(F)cc1)N(c1ccc(F)cc1)C(=O)C2 (stereo not given) ?
HCMV NEC inh: 4; Sa growth 42C: 106; GIV-Gai inh: 102; Sa growth 42C second temp: 89

How did CCN(C(=O)c1cc2c(s1)-c1c(C)cccc1OC2)c1ccccc1F do in these assays?
HCMV NEC inh: -28; Sa growth 42C: 107; GIV-Gai inh: 104; Sa growth 42C second temp: 80

What do the screens show for `Cc1cccc(CN2CCC(CNC(=O)c3ccc4c(Cl)c5c(nc4c3)CCCC5)CC2)c1`?
Sa growth 42C: 98; GIV-Gai inh: 101; Sa growth 42C second temp: 85

How did COc1cccc(CNC(=O)CN2C(=O)N(c3ccc(C)cc3C)S(=O)(=O)c3ccccc32)c1OC do in these assays?
Sa growth 42C: 132; GIV-Gai inh: 104; Sa growth 42C second temp: 99

How did COc1ccc(CNC(=O)c2cnn(-c3ccc(C)cc3)c2C2CCN(C(=O)OC(C)(C)C)CC2)cc1 do in these assays?
Sa growth 42C: 108; GIV-Gai inh: 102; Sa growth 42C second temp: 86

What do the screens show for `CC(C)c1ccc(NC(=O)CSCc2csc3ccccc23)cc1`?
HCMV NEC inh: -12; Sa growth 42C: 94; GIV-Gai inh: 104; Sa growth 42C second temp: 81

How did COCCN(CCC(=O)N1CCNCC1)C(=O)c1ccc(F)c(Cl)c1 do in these assays?
HCMV NEC inh: -20; GIV-Gai inh: 103

What do the screens show for `Cc1nnc2c(Nc3ccccc3)nc3ccccc3n12`?
HCMV NEC inh: -3; Sa growth 42C: 92; GIV-Gai inh: 99; Sa growth 42C second temp: 91

Results for NC(=O)COC(=O)/C=C/c1ccc(S(=O)(=O)N2CCOCC2)cc1 ?
HCMV NEC inh: -37; Sa growth 42C: 102; Sa growth 42C second temp: 91

What do the screens show for `COC(=O)c1c(NC(=O)c2ccccc2)csc1C`?
HCMV NEC inh: -13; Sa growth 42C: 74; GIV-Gai inh: 102; Sa growth 42C second temp: 84

What do the screens show for `O=c1ccc(-c2ccc(S(=O)(=O)N3CCN(c4ccccc4)CC3)s2)n[nH]1`?
HCMV NEC inh: -14; Sa growth 42C: 89; GIV-Gai inh: 98; Sa growth 42C second temp: 83

How did CCOC(=O)COc1ccc(C)cc1C(=O)c1ccn2nc(-c3ccc(OC)cc3)cc2n1 do in these assays?
HCMV NEC inh: -20; GIV-Gai inh: 99

How did CCOC(=O)c1cc2c(=O)n3ccccc3nc2n(C2CCCCC2)c1=NC(C)=O do in these assays?
Sa growth 42C: 98; GIV-Gai inh: 101; Sa growth 42C second temp: 81

How did COc1ccc(C(=O)NC2CCN(CC(=O)N3CCCCCC3)CC2)cc1 do in these assays?
HCMV NEC inh: -32; Sa growth 42C: 93; GIV-Gai inh: 105; Sa growth 42C second temp: 87

What do the screens show for `Cc1cc(C)c(OCC(=O)N(Cc2ccccc2)C2CCS(=O)(=O)C2)c(C)c1` (stereo not given)?
HCMV NEC inh: -20; GIV-Gai inh: 103

How did Cn1nnc(NC(=S)NC(=O)c2cccs2)n1 do in these assays?
HCMV NEC inh: -13; Sa growth 42C: 116; GIV-Gai inh: 105; Sa growth 42C second temp: 96

Results for O=C(O)C(Cc1ccco1)P(=O)(O)CN1CCOCC1 (stereo not given) ?
HCMV NEC inh: -9; Sa growth 42C: 91; Sa growth 42C second temp: 79

How did CC(C(=O)NCCC1=CCCCC1)n1ncn2cccc2c1=O (stereo not given) do in these assays?
HCMV NEC inh: -25; Sa growth 42C: 73; GIV-Gai inh: 103; Sa growth 42C second temp: 79

What do the screens show for `Cc1c(CNC(=O)c2ccc(C(F)(F)F)cc2)sc2ccccc12`?
HCMV NEC inh: 8; Sa growth 42C: 113; GIV-Gai inh: 105; Sa growth 42C second temp: 98

How did Cc1c(F)cccc1NS(=O)(=O)c1cccs1 do in these assays?
Sa growth 42C: 110; GIV-Gai inh: 104; Sa growth 42C second temp: 89

What do the screens show for `Cc1ccc2nc3c(cc2c1)CCN3S(=O)(=O)c1ccc(F)cc1C`?
HCMV NEC inh: -16; GIV-Gai inh: 106

How did Cc1cccc(N2CCN(C(=O)c3cc4c(=O)[nH]c5ccc(C)cc5c4s3)CC2C)c1 (stereo not given) do in these assays?
HCMV NEC inh: 1; Sa growth 42C: 89; GIV-Gai inh: 106; Sa growth 42C second temp: 95

How did CC(=O)Nc1ccc(S(=O)(=O)NC2CCCCC2NS(=O)(=O)c2ccc(NC(C)=O)cc2)cc1 (stereo not given) do in these assays?
HCMV NEC inh: -7; Sa growth 42C: 102; GIV-Gai inh: 98; Sa growth 42C second temp: 74

How did COc1ccccc1NC(=O)NCc1cccn1Cc1ccccc1 do in these assays?
Sa growth 42C: 98; GIV-Gai inh: 97; Sa growth 42C second temp: 85

How did O=c1[nH]c2nonc2nc1/C=C(\O)c1ccccc1 do in these assays?
HCMV NEC inh: -80; Sa growth 42C: 93&85; GIV-Gai inh: 101&114; Sa growth 42C second temp: 71&38

Results for O=C(CCC(=O)N1CCN(S(=O)(=O)Cc2ccccc2)CC1)c1cccs1 ?
HCMV NEC inh: -9; Sa growth 42C: 120; Sa growth 42C second temp: 85

How did COc1ccc(NC(=O)Cn2c(=O)n(-c3ccccc3)c(=O)c3ccc(C(=O)NCc4ccco4)cc32)cc1 do in these assays?
HCMV NEC inh: -18; Sa growth 42C: 104; GIV-Gai inh: 103; Sa growth 42C second temp: 82

What do the screens show for `Cn1c(CS(=O)(=O)c2ccc(Cl)cc2)c(C#N)c2ccccc21`?
HCMV NEC inh: -12; Sa growth 42C: 101; GIV-Gai inh: 106; Sa growth 42C second temp: 86

How did Cc1nc2cc(C(F)(F)F)ccc2n1C1CCN(C(=O)C2CC2)CC1 do in these assays?
HCMV NEC inh: 7; Sa growth 42C: 101; GIV-Gai inh: 100; Sa growth 42C second temp: 85

What do the screens show for `CCSC1=C(C#N)C(=O)NC(c2ccc(N(C)C)cc2)S1` (stereo not given)?
HCMV NEC inh: -13; Sa growth 42C: 57; GIV-Gai inh: 101; Sa growth 42C second temp: 30

How did Cc1cc(=O)n(Cc2cccc(Br)c2)c2c1c(C)nn2-c1ccccc1 do in these assays?
Sa growth 42C: 85; GIV-Gai inh: 98; Sa growth 42C second temp: 87

What do the screens show for `Clc1ccc(-c2ncnn2-c2cccc(Cl)c2)cc1`?
HCMV NEC inh: -14; Sa growth 42C: 99; GIV-Gai inh: 103; Sa growth 42C second temp: 90

How did COc1cccc(CNC(=O)CN2C(=O)CSc3c2c(C)nn3-c2ccccc2)c1OC do in these assays?
Sa growth 42C: 109; GIV-Gai inh: 107; Sa growth 42C second temp: 89

What do the screens show for `NC(=O)NC(=S)NC(=O)c1ccccc1Cl`?
HCMV NEC inh: -12; Sa growth 42C: 85; GIV-Gai inh: 107; Sa growth 42C second temp: 88

How did CCOC(=O)CSc1nc2ccc(NC(=O)COc3ccc(F)cc3)cc2s1 do in these assays?
HCMV NEC inh: 6; Sa growth 42C: 87; GIV-Gai inh: 105; Sa growth 42C second temp: 87

How did Cc1cc(NC(=O)c2cccc(OC(C)C)c2)cc(-c2nc3ncccc3o2)c1O do in these assays?
HCMV NEC inh: -28; GIV-Gai inh: 105

What do the screens show for `Cc1ccccc1NC(=O)CCOc1ccccc1`?
HCMV NEC inh: 10; Sa growth 42C: 109; GIV-Gai inh: 106; Sa growth 42C second temp: 98

What do the screens show for `COc1ccc(-c2c(C)c3cc(OC(=O)N4CCOCC4)ccc3oc2=O)cc1`?
Sa growth 42C: 119; GIV-Gai inh: 94; Sa growth 42C second temp: 81

Results for CCN(CC)c1ccc(/C=C(/C#N)c2ccc3c(c2)OCO3)cc1 ?
HCMV NEC inh: -11; Sa growth 42C: 113; GIV-Gai inh: 112; Sa growth 42C second temp: 98

What do the screens show for `CC(=O)Nc1ccc2nc(Nc3nc4ccc(C(C)C)cc4s3)sc2c1`?
Sa growth 42C: 128; GIV-Gai inh: 109; Sa growth 42C second temp: 99

How did COCCNC(=O)C1c2ccccc2C(=O)N(CCOC)C1c1cccs1 (stereo not given) do in these assays?
HCMV NEC inh: 14; Sa growth 42C: 96; GIV-Gai inh: 100; Sa growth 42C second temp: 96

How did CCOC(=O)c1sc(SCCS(=O)(=O)c2ccc(Cl)cc2)c2c1CCCC2=O do in these assays?
HCMV NEC inh: 19; Sa growth 42C: 98; GIV-Gai inh: 100; Sa growth 42C second temp: 90

Results for CC1(C)CC(=O)C(C(NC(=O)c2ccncc2)(C(F)(F)F)C(F)(F)F)=C(NCc2ccco2)C1 ?
HCMV NEC inh: -5; Sa growth 42C: 107; Sa growth 42C second temp: 80

Results for CCOc1ccc(-c2cc(NC(=O)c3ccccc3)c(C(=O)OC)s2)cc1 ?
HCMV NEC inh: -2; Sa growth 42C: 100; GIV-Gai inh: 109; Sa growth 42C second temp: 86

How did COC(=O)c1ccccc1NC(=O)CSc1nnc(CSc2nc(C)cc(C)n2)o1 do in these assays?
Sa growth 42C: 99; GIV-Gai inh: 100; Sa growth 42C second temp: 85

How did CCCc1cc(=O)[nH]c(SCC(=O)/C(C#N)=C(\C)N)n1 do in these assays?
HCMV NEC inh: -28; Sa growth 42C: 61; Sa growth 42C second temp: 88

How did O=C(Nc1cccc2nsnc12)c1ccc(Cl)cc1 do in these assays?
HCMV NEC inh: -37; Sa growth 42C: 100; GIV-Gai inh: 106; Sa growth 42C second temp: 89

Results for O=C(c1ccccc1)c1ccccc1OCc1nc2ccccc2s1 ?
HCMV NEC inh: -3; Sa growth 42C: 97; Sa growth 42C second temp: 94

Results for COC(=O)C1=C(C)Nc2nnnn2C1c1cc(OC)ccc1OC (stereo not given) ?
HCMV NEC inh: -11; GIV-Gai inh: 97

Results for O=C(c1ccccc1)N1CCN(S(=O)(=O)N2CCOCC2)CC1 ?
HCMV NEC inh: -4; Sa growth 42C: 106; GIV-Gai inh: 102; Sa growth 42C second temp: 83

How did Cc1cccc(C)c1NC(=O)CCCSc1nnc(N)s1 do in these assays?
HCMV NEC inh: -1; Sa growth 42C: 94; Sa growth 42C second temp: 93

What do the screens show for `CC1Nc2ccc(C(=O)N3CCC4(CC3)OCCO4)cc2NC1=O` (stereo not given)?
HCMV NEC inh: -41; Sa growth 42C: 83; GIV-Gai inh: 240; Sa growth 42C second temp: 84
